# gsp agonist = activates gsp, the McCune-Albright syndrome mutation. gsp mutant cells, cAMP HTRF, 30 min; control for the full effect not named in the record. Potency, µM (top dose mostly 76.9 µM), without a hit: at the top dose activation (cAMP increase), hits mostly activators. 340,000 compounds, 0.13% hits. AID 624287; active = well fitted activation curve with a large enough effect; inconclusive = small, poorly fitted or top-dose-only effect, or another doubt; inactive = no such curve, though single readings can be large or run the other way; cell line not stated here;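 also: phosphodiesterase inhibitor Ro 20-1724 added with compounds to block cAMP breakdown; potency is read from the fitted curve at half-maximal effect; nearly all actives have a fitted effect of over 60% in size; about a fifth of the inactives were tested at one dose only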
#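 Cells in DMEM/10% FBS with G418 were pretreated with compounds in DMSO plus […] (300 uM stock) for 30 min at 37C. cAMP was measured by HTRF (cAMP-d2 plus anti-cAMP antibody-K) after 30 min at room temperature.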
# TRPV1 potentiator = potentiators of human vanilloid receptor 1 (TRPV1) | TRPV1-expressing cells, Fluo-8 calcium influx, capsaicin EC20 potentiation; host cell line not named in the record; control for the full effect not named in the record | potentiation, % at 8.33 µM | 320,000 compounds, 0.02% hits | AID 540277; active means potentiation above 80%; inconclusive means 30% to 80%; inactive means below 30%; also: 0% is about no effect
#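 Cells expressing TRPV1 were dye-loaded with Fluo-8 and read kinetically: 10 s baseline, 3 min after compound (agonist portion), then 2 min after EC20 capsaicin (allosteric enhancer portion). Calcium-bound dye fluorescence at 480/520 nm.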
# ClpP mod = qHTS Assay for Activators of ClpP; ATP-dependent Clp protease proteolytic subunit (Bacillus subtilis (strain 168)), P80244; purified B. subtilis ClpP, FRET peptide cleavage, 20 min; Potency, µM (highest dose often 57.5 µM), inactives show at the highest dose activity change, negative = active; 340,000 compounds, 1.9% hits; AID 651965, 2013; active = well fitted falling curve with a large enough effect; inconclusive = small, poorly fitted or top-dose-only effect; inactive = no such curve, though single readings can be large or run the other way; also: potency is read from the fitted curve at half-maximal effect; the source files actives as falling curves though it sought activators and does not explain the sign; nearly all actives have a fitted effect of over 65% in size; many hits overshoot -100%
# Target sequence (P80244 whole entry, looked up): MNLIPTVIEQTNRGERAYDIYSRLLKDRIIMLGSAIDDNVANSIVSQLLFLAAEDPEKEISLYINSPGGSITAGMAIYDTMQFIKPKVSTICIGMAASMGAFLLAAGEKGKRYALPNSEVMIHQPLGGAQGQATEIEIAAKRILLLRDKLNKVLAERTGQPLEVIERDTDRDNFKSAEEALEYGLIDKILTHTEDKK
#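 Buffer: 100 mM Tris/HCl pH8, 100 mM KCl, 0.05% low protease BSA, 2.5% glycerol, 0.01% Tween-20. ClpP 10 microg/mL final; 20 min RT; delta FRET normalized to ADEP and DMSO controls.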
# gsp antagonist = antagonists of gsp mutant (McCune-Albright syndrome) | gsp-mutant cells, cAMP HTRF, 30 min; control for the full effect not named in the record | Potency, µM (top dose mostly 76.9 µM), inactives show top-dose activity change, negative = inhibition, most hits filed as inhibitors | 340,000 compounds, 0.4% hits; active = falling curve of any shape with a large fitted effect; inconclusive = falling curve, mostly with a smaller effect; inactive = flat or rising curve; cell line not stated here;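 also: intracellular cAMP measured with PDE inhibitor Ro 20-1724 present during compound exposure; potency is read from the fitted curve at half-maximal effect; % is scaled to controls: 0 for no effect and ±100 for the full control effect; nearly all actives have a fitted effect of over 65% in size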
#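 Cells, 2000/well, grown 16–24 h in DMEM 10% FBS with 0.5 mg/ml G418, then compounds plus […] (300 uM addition stock), 30 min at 37C. cAMP read by HTRF (cAMP-d2 and anti-cAMP antibody-K in lysis buffer) after 30 min RT.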
# TRPML1 inh = human mucolipin-1 channel inhibition | activity change, negative = inhibition, % (test concentration not listed) | 390,000 compounds, 0.02% hits | Q9GZU1 | TRPML1-inducible cells, Ca2+ dye fluorescence, FDSS; stronger effect = lower value; inhibition of EC80 agonist-evoked calcium signal; in the data active means activity change below about -50%; inconclusive means about -30% to -50%; inactive means above about -30%;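 also: stimulus is agonist 54-4 at its EC80 concentration; % is scaled to controls: 0 for no effect and ±100 for the full control effect; compound concentration not given in the record; the text of the record puts the active cut at -80%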
# Target sequence (Q9GZU1 whole entry, looked up): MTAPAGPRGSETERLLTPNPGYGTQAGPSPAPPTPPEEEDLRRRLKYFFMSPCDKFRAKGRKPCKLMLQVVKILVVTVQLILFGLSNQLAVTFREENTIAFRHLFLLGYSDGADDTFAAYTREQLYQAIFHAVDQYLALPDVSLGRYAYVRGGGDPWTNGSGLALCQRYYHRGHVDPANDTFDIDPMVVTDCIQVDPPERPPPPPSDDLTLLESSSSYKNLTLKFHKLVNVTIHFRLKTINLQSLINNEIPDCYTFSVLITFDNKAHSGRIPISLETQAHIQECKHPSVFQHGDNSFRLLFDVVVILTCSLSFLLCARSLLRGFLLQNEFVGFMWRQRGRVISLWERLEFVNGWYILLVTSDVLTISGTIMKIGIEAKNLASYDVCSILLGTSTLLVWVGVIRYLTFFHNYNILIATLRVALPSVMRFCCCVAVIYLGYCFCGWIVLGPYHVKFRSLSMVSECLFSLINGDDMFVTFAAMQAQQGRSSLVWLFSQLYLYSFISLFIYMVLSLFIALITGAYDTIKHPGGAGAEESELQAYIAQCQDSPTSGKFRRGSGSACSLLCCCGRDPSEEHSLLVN
#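 TRPML1-DL cells, Tet-induced overnight (~16 h, 37 °C) at 1,500 cells/well, were loaded with Ca8 no-wash dye plus quencher for 45-90 min at room temperature. Compounds were pinned during FDSS kinetic reading; agonist 54-4 at EC80 (4 uM final) then added.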
# Menin-MLL FL inh = menin-MLL binding inhibition, fluorescein peptide; Fluorescence polarization, fluorescein-MLL peptide displacement from menin; FP activity change, % at 61.4 µM; 290,000 tested, under 10 active; inconclusive = falling polarisation curve, or a change in total fluorescence; inactive = total fluorescence flat and polarisation flat or rising; no compound was filed as active; the % refers to the polarisation; negative = inhibition;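 also: % of control where 0% means no effect; inhibitors lower the polarisation; unlabelled MLL peptide was the positive control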
# Sfp inh = inhibitors of Bacillus subtilis Sfp phosphopantetheinyl transferase; Biochemical Sfp PPTase activity, qHTS; Potency, µM, inactives show max response, negative = inhibition, actives largely listed as inhibitors; 310,000 compounds, 3.5% hits; Q9F4F7; active = well fitted inhibition curve with a large enough effect; inconclusive = small, poorly fitted or top-dose-only effect, or another doubt; inactive = no such curve, though single readings can be large or run the other way;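 also: the enzyme is Sfp with the accession as filed and its product quenches rhodamine fluorescence; potency is read from the fitted curve at half-maximal effect; 0% = enzyme reaction without inhibitor and -100% = no enzyme wells; top concentration of the series not given in the record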
#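 Fluorescence-quenching assay with 15 nM Sfp, 5 uM rhodamine-CoA and 12.5 uM BHQ-2-labelled ybbR peptide in pH 7.6 Hepes/MgCl2 buffer. Enzyme was pre-incubated with compound for 15 min at room temperature. Rate was taken from the 30-min fluorescence change (525/598 nm).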
# An asterisk follows results filed as active; ? = inconclusive; · = not tested or not shown; [ ] = dose if it differs, or a comment.
SMILES,gsp agonist,TRPV1 potentiator,ClpP mod,gsp antagonist,TRPML1 inh,Menin-MLL FL inh,Sfp inh
Cc1ccc(CCNC(=O)c2coc3nc4ccccc4nc23)cc1,9.8%,14.4,?,2.8%,16.8,?,-19.0%
CC(C)COc1ccc(N)cc1OCC(C)C,-1.4%[15.4 µM],2.4,·,7.5%,5.7,0.9,10.2%
Cc1cc(C)cc(C(=O)NC(CC(N)=O)c2ccc(N3CCN(C)CC3)c([N+](=O)[O-])c2)c1 (stereo not given),?,18.8,1.9%,9.1%,5.1,2.1,8.7%
CCOc1ccc2nc(N3CCC(C(=O)Nc4ccc(Br)cc4F)CC3)sc2c1,·,-2.2,-0.2%,·,32.3,·,·
O=S(=O)(NC1Cc2ccccc2C1)c1ccccc1,16.3%,-21.0,-0.1%,-9.7%,35.0,-2.9,4.8%
COC(=O)c1c(NC(NC(=O)CC(C)C)C(Cl)(Cl)Cl)sc2c1CCC2 (stereo not given),-11.8%,-5.0,-1.0%,?,6.3,8.7,-12.0%
COc1ccc(S(=O)(=O)NCc2cccs2)cc1,8.2%,3.4,4.5%,4.2%,3.0,7.6,4.0%
Nn1c(SCC(=O)NC2CCCCC2)nnc1-c1ccc(Cl)cc1,-46.6%[inhibitor],18.1,-0.2%,9.6%,-6.5,-0.6,12.3%
Cc1ccc2cc(CN(CCCO)S(=O)(=O)c3cccc4nsnc34)c(=O)[nH]c2c1,0.6%,8.7,-4.7%,-7.6%,35.6,0.4,-0.3%
COC(=O)CCCNC(=O)c1ccccn1,-29.8%,-6.7,-0.4%,10.0%,-20.6,-2.3,15.3%
Cc1nn(Cc2cccc(F)c2)c(C)c1NC(=O)c1c([N+](=O)[O-])c(C)nn1C,?,11.9,-0.8%,3.1%,20.5,2.0,26.7%
CC(C)(C)NC(=O)Cn1c(SCC(=O)N2CCCCCC2)nc2ccccc21,-6.9%,-12.1,0.3%,-4.2%,-4.1,6.5,11.7%
CCCc1nnc(NC(=O)C(C)N2C(=O)C3C4C=CC(C4)C3C2=O)s1 (stereo not given),-23.8%,-17.4,1.6%,7.9%,50.5,-1.8,2.3%
COc1ccc(OC)c(N(C(=O)c2ccco2)C(C(=O)NC2CCCC2)c2cc(OC)c(OC)c(OC)c2)c1 (stereo not given),-6.3%[15.4 µM],0.3,·,1.8%,8.9,-6.6,-3.1%
NC(=O)C1CCN(c2oc(-c3ccc(F)cc3)nc2S(=O)(=O)c2ccccc2)CC1,0.7%,11.1,0.2%,-15.0%,-7.2,·,·
CC(C)CCn1c(=O)c2ccccc2n2c(CCC(=O)NCC3CCCO3)nnc12 (stereo not given),31.6µM*,-12.8,-22.1%,6.5%,-13.1,·,10.7%
CCOC(=O)c1ccc(NC(=O)NCCN2CCCCC2)cc1,20.5%,13.4,-3.8%,12.7%,-4.6,1.5,-1.6%
NC(=O)CSc1nc(-c2ccccc2)nc2c1CCCC2,-15.1%[15.4 µM],-7.5,·,15.3%,-1.3,3.7,11.7%
Brc1ccc(-c2nnc3n2CCCCC3)cc1,9.6%,1.2,-1.1%,4.9%,-10.8,-0.5,12.1%
COc1ccccc1N(CC(O)Cn1ccnc1C)S(=O)(=O)c1ccc(C)cc1 (stereo not given),-1.7%[15.4 µM],-7.4,·,4.1%,13.6,-2.7,0.3%
CCN(C(=O)C(C)N1C(=O)/C(=C/c2ccco2)SC1=S)C1CCS(=O)(=O)C1 (stereo not given),-7.7%,-4.7,0.6%,-2.1%,1.4,?,15.8µM*
CCN=c1scc(C)n1/N=C/c1cc(Br)c(O)c(Br)c1,7.9%[15.4 µM],1.9,·,·,-2.7,-2.4,?
O=C(NN=C1CCCCCC1)C(=O)Nc1cccc(Br)c1,-0.5%[15.4 µM],2.8,0.6%,17.2%,-17.0,-0.5,15.4%
C#CCOc1ccc(/C=C2/C(=O)NN(c3ccccc3)C2=O)cc1OC,5.6%[15.4 µM],1.1,2.6%,-9.6%,0.6,1.9,8.7%
COc1ccccc1-c1nnc(N)s1,-0.5%,-5.5,·,3.0%,15.2,7.1,0.3%
CN(Cc1ccc(F)cc1)S(=O)(=O)c1ccc2[nH]c(=O)[nH]c2c1,-4.0%,·,-3.0%,·,7.2,·,·
O=C(NCc1cccnc1)c1cnc2sccn2c1=O,?,7.6,4.2%,2.1%,16.8,0.6,5.3%
CCOc1ccc(-n2cnnn2)cc1S(=O)(=O)NCc1ccccc1,-24.0%,1.4,0.4%,-0.1%,-18.1,-0.8,16.7%
Cn1c(=O)[nH]c(=O)c2c1nc(NCCCO)n2CCOc1ccccc1,7.6%,1.0,1.0%,-1.5%,4.4,-1.3,0.1%
CC(=O)OC[C@H]1COc2ccc3ccccc3c2[C@H]1N(C)C(C)=O,0.8%,?,·,2.3%,-9.7,-1.6,10.0%
CCN1CCCn2c1nc1c2c(=O)n(C)c(=O)n1C,?,-7.8,-6.9%,1.4%,10.9,11.7,19.6%
O=C(NCCc1c[nH]c2ccccc12)c1ccc2c(c1)OCO2,6.2%,-6.7,·,0.6%,13.9,0.1,-3.7%
CCC(Oc1ccc2c(c1)C(=O)CC(C)(C)O2)C(=O)NCCN1CCCCCC1 (stereo not given),?,3.2,?,-1.4%,91.8,3.9,?
CCCN(CCC)CCNS(=O)(=O)c1ccc2c(c1)oc(=O)n2C,-24.8%,-1.3,-1.1%,4.1%,11.6,-0.1,-17.2%
CNC(=S)N/N=C/c1cn(Cc2c(F)cccc2Cl)c2ccccc12,-47.5%[inhibitor],7.0,-10.6%,-2.9%,-17.7,0.9,15.4%
Cc1ccc(-n2nnc3c(=O)n(Cc4ccccn4)cnc32)cc1C,3.1%[15.4 µM],-6.7,·,2.6%,6.6,-4.7,8.3%
Cc1ccc(O)c(NC(=O)CSc2n[nH]c(-c3ccccc3)n2)c1,-2.9%,0.1,-0.6%,-22.4%,15.9,·,11.6%
Cc1nn(C)c(C(=O)NNC(=O)Nc2cccc(C(F)(F)F)c2)c1Cl,?,9.5,·,-10.3%,-8.4,4.6,22.2%
CCc1nc(C)cn1S(=O)(=O)c1ccc(Br)cc1,-3.0%,5.3,3.4%,0.1%,·,0.5,15.2%
COc1ccc(COC(=O)Nc2c(SC)nsc2SC)cc1,8.8%,1.0,·,-4.1%,1.3,0.4,-17.2%
Cc1cc(-n2[nH]c(C)c(C)c2=O)nc(-c2ccccc2O)n1,0.3%,-7.3,-2.9%,-12.0%,-1.4,-3.5,24.1%
COc1ccc(C(=O)NC(=S)N2CCCCC2)cc1,-5.8%,6.2,-2.0%,4.9%,-8.8,3.3,-4.7%
COc1ccc([N+](=O)[O-])cc1NC(=O)CCN1CCOCC1,-26.4%,3.6,·,-4.6%,31.1,3.0,-1.9%
CN(C(=O)c1cccc(NC(=O)Cc2ccc(NC(=O)C3CCN(C(=O)C4CCC4)CC3)cc2)c1)C1CCCCC1,·,·,-0.7%,-8.3%,-11.1,·,·
O=C(Cc1ccc([N+](=O)[O-])cc1)N1CCN(c2ccc([N+](=O)[O-])cc2)CC1,9.7%,-8.5,-0.4%,-17.9%,50.3,0.5,10.3%
COc1ccccc1CCC(=O)OCC(=O)Nc1ccc2[nH]c(=O)[nH]c2c1,-2.4%[15.4 µM],-10.0,-1.9%,6.7%,3.8,·,·
CN(CC(=O)Nc1ccc(Cl)c(Cl)c1)C(=O)c1cccc2cccnc12,-19.6%,2.9,-1.0%,-5.7%,3.1,·,·
CCOC(=O)C1(CCc2ccccc2)CCN(C(=O)CCc2cnn(C)c2)CC1,-4.3%,0.5,·,4.1%,19.1,-6.0,4.7%
Cc1ccc2[nH]c3c(=O)n(Cc4ccncc4)cnc3c2c1,-18.8%,3.5,14.1µM*,-4.3%,-12.2,-0.2,7.3%
Cc1ccc(NC(=O)C(=O)NC2CCCCC2)cc1,5.9%,16.9,5.7%,8.8%,-4.0,-1.9,10.3%
O=C(c1ccccc1)N1CCN(C(=O)c2cc3ccccc3o2)CC1,-49.2%[inhibitor],-6.2,0.2%,-16.3%,9.5,5.0,4.8%
Cc1ccc(S(=O)(=O)N2CCC(C(=O)NCCC3=CCCCC3)CC2)c(C)c1,0.0%[15.4 µM],-4.3,-0.9%,-12.1%,-15.7,·,·
CCOC(=O)NC1(NCC(C)C)Oc2ccccc2O1,-22.6%,19.3,-2.2%,9.9%,15.3,-0.2,79.4µM*
O=C(c1nc[nH]c1C(=O)N1CCc2ccccc2C1)N1CCc2ccccc2C1,·,12.2,-3.3%,-2.9%,-9.6,·,·
O=C(OCc1cc2ccccc2[nH]c1=O)c1cccc([N+](=O)[O-])c1,-3.0%,4.6,-0.9%,-5.2%,-1.5,-3.0,14.1%
COC(=O)c1sc(=S)n(Cc2ccccc2)c1C,-8.2%[15.4 µM],-12.8,-4.1%,-8.0%,2.2,-0.8,-8.7%
CCOC(=O)c1ccccc1OC(=O)Oc1ccccc1C(=O)OCC,6.5%,·,·,-13.0%,17.3,·,·
Cc1cccc(N/N=C/c2ccc(O)c(O)c2O)c1,-34.3%[inhibitor],-17.3,-0.6%,-8.5%,29.2,1.8,3.55µM*
O=C(Cc1ccc([N+](=O)[O-])cc1)N1CCCc2ccccc21,-5.7%[15.4 µM],3.4,·,4.6%,-5.2,0.2,-3.4%
O=C(Nc1ccc(S(=O)(=O)NCc2cccnc2)cc1)c1ccco1,-2.7%,-1.5,0.0%,-9.1%,-9.4,4.0,-0.6%

# Following part.
SMILES,gsp agonist,TRPV1 potentiator,ClpP mod,gsp antagonist,TRPML1 inh,Menin-MLL FL inh,Sfp inh
NS(=O)(=O)c1ccc(CCN=Cc2ccccc2O)cc1,-35.7%[inhibitor],4.2,-0.2%,2.2%,-6.6,-0.1,20.9%
CCN(CC)c1ccc(/C=N/NS(=O)(=O)c2cccc([N+](=O)[O-])c2)cc1,11.3%,0.2,-1.5%,-25.7%,-9.4,2.9,?
N#CC1C(=O)NC(=O)CC12CCCCC2 (stereo not given),5.8%[15.4 µM],·,-0.8%,2.8%,9.4,·,·
Cc1cnc(C(=O)N2CCCC(C(=O)c3ccc(C(F)(F)F)cc3)C2)cn1 (stereo not given),26.1%,7.7,·,2.5%,0.7,21.4,-17.9%

# Compound activity (PubChem BioAssay)
